Screening results (PubChem BioAssay)
HPGD inh: HPGD (human) dehydrogenase inhibition; P15428; purified HPGD, NADH fluorescence kinetic, PGE2 substrate; hit rate 4.3% among 150,000; Potency, µM, for the others: top-dose activity change, negative = inhibition, most hits filed as inhibitors; active = well fitted inhibition curve with a large enough effect (not every such curve was filed as active); inconclusive = small, poorly fitted or top-dose-only effect, or another doubt; inactive = no such curve, though single readings can be large or run the other way;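 note: top concentration of the series not given in the record; plate controls included wells without enzyme; inactives centre near -10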
Target sequence (P15428 whole entry, looked up): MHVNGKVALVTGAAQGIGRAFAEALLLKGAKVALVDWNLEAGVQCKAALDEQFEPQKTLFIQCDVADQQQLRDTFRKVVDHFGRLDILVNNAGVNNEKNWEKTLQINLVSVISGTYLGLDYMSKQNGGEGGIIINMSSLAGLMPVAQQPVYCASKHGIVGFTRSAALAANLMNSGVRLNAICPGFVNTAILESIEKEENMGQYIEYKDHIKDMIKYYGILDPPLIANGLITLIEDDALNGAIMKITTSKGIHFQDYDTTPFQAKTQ
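NADH formation kinetics: reaction with 30 uM PGE2 and 1 mM NAD+ (final), 20 nM enzyme, Tris-HCl pH 8 with Tween 20, after 15 min compound preincubation at room temperature. Fluorescence change, last versus first of five reads.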
* marks the source's active call; other numbers are inactive results; ? = inconclusive; & = joins results of further samples. % is set by controls: 0 for no effect and ±100 for the full control effect; potency is the fitted concentration of half-maximal effect. A portion of the library; the hit share may differ from the screen's.

SMILES	HPGD inh
NC(=O)C1CCN(C2CC(=O)N(Cc3cccs3)C2=O)CC1 (configuration not stated)	5%
COc1ccccc1CNc1cc(CSc2ccc(Cl)cc2)nc(C)n1	-7%
Cc1ccc(CS(=O)(=O)Cc2ccc(C(=O)NCc3ccccn3)o2)cc1	-1%
CN1CCN(CCCNC(=O)C2CC(=O)N(C3CCCCC3)C2)CC1 (configuration not stated)	0%
COC(=O)n1c(SC)nc2ccccc21	-14%
COC(=O)c1cc2c(ccn2-c2ccc(F)cc2)n1Cc1cccc(OC)c1	?
O=C(O)[C@H]1CCc2ccc3ccccc3c2[C@H]1c1cccc2ccccc12	-2%
Cc1cccc(S(=O)(=O)NC(Cc2c[nH]c3ccccc23)C(=O)O)c1 (configuration not stated)	-5%
Cc1ccc([N+](=O)[O-])cc1NC(=O)CCCOc1ccccc1	-2%
CC(C)[C@@H]1NC(=O)c2cc([N+](=O)[O-])cc(F)c2NCCC[C@@H](C(N)=O)NC(=O)[C@H](CO)NC1=O	-18%
Cc1oc(C)c(C(=O)O)c1COc1ccc(C(=O)O)cc1	0%
C#CCOCCOCCOCCNc1nc(N2CCN(C(=O)[C@H](Cc3ccc(O)cc3)n3cc(CCO)nn3)CC2)nc(N2CCN(C(=O)[C@H](Cc3ccc(O)cc3)n3cc(CCO)nn3)CC2)n1	-9%
COc1cccc(/C=N/NC(=O)CCc2n[nH]c(=O)[nH]c2=O)c1O	-29%
CC(C)OC(=O)/C(=C/c1ccc2c(c1)c1ccccc1n2C)NC(=O)c1ccccc1	?
O=c1[nH]c(CSc2nnc(-c3ccncc3)n2Cc2ccco2)nc2ccccc12	3%
COc1ccccc1CNC(=O)CSc1ccc(C(=O)Nc2ccccc2OC)cc1[N+](=O)[O-]	-9%
C=C1C[C@@]23CC4C5[C@@]6(C)C[C@H](O)C[C@@]57C2[C@H](O)[C@@H]1[C@H](O)[C@H]3[C@H]7N4C6	2%
O=S(=O)(Nc1ccc(S(=O)(=O)Nc2cccc3ccccc23)cc1)c1ccccc1	0%
CCN(CC)C(=O)CSc1nnc(CNc2ccc(F)cc2)n1-c1ccccc1	-6%
O=C(CCN1C(=O)C2C3C=CC(C3)C2C1=O)Nc1c(F)cccc1F (configuration not stated)	-11%
c1coc(CNC2CCCCCCC2)c1	-4%
CN(C)S(=O)(=O)c1ccc(N2CCCC2)c(C(=O)Nc2nc(-c3ccc(F)c(F)c3)cs2)c1	?
CS(=O)(=O)c1ccc2nc(NC(=O)C3CCCCC3)sc2c1	-15%
CCSc1nnc(NC(=O)C2CCCCC2C(=O)O)s1 (configuration not stated)	-3%
Cc1ccc(N/C(N)=N/c2nc(CSc3ccc(C)cc3)cc(=O)[nH]2)cc1	-14%
COC(=O)COn1c(-n2nc(C)cc2C)nc2ccccc2c1=O	1%
COc1ccc(-c2c3c([nH]c(=S)c2C#N)CCC3)cc1	10µM*
O=C(CC1NC2CCCCC2NC1=O)Nc1ccc2c(c1)OCO2 (configuration not stated)	-6%
CCOC(=O)C1(CCSC)NC(c2ccco2)C2C(=O)N(CC)C(=O)C21 (configuration not stated)	4%
CCC(=O)NC(=S)Nc1ccccc1C(=O)OC	-3%
CCC(C)(C)n1nnnc1C(c1cc(OC)c(OC)c(OC)c1)N1CCN(c2ccccc2)CC1 (configuration not stated)	-5%
COc1cc2c(cc1OC)C(C(=O)Nc1cccc(C)n1)C(c1cccnc1)N(C)C2=O (configuration not stated)	-5%
CCOc1ccc(C(=O)NC(Cc2ccccc2)C(=O)OC)cc1 (configuration not stated)	-6%
Cc1cc(C)nc(NC2=NCC(=O)N2c2ccccc2)n1	-11%
COc1cc(OC)cc(C2C(C#N)=C(N)Oc3n[nH]c(-c4cccnc4)c32)c1 (configuration not stated)	-12%
Cc1ccc(OCC(O)Cn2c(NCCc3ccccc3)nc3c2c(=O)[nH]c(=O)n3C)cc1 (configuration not stated)	-7%
O=C(CN1CCOCC1)Nc1ccccc1C(=O)O	-6%
COc1cc2ccc([C@H](C)NCC#N)cc2cc1OC	-9%
CCC(CC)C(=O)NCCCN1CCOCC1	-1%
O=C(CCCc1nc2ccccc2s1)NCc1ccc(F)cc1	25µM*
O=S(=O)(NCc1cccnc1)c1ccc(Br)s1	-5%
O=C(NCc1cccnc1)C1CCCN(S(=O)(=O)c2ccc(Br)cc2)C1 (configuration not stated)	-9%
CC(=O)NCC(=O)NC(C(=O)Nc1ccc2c(c1)OCCO2)c1ccccc1 (configuration not stated)	-7%
O=c1c2ccccc2nc(-c2ccco2)n1Cc1ccccc1	-5%
Cc1c(C(=O)OC(C)C)sc(NC(=O)C2CCCO2)c1C(=O)OC(C)C (configuration not stated)	-8%
Cc1cccc(Nc2cnn(C34CC5CC(CC(CC(=O)O)(C5)C3)C4)c(=O)c2Cl)c1	-10%
COc1ccc(/C=C2\Sc3ccc(C(=O)N4CCc5ccccc5C4)cc3N(C)C2=O)cc1	?
COc1ccc(-n2nnc3c(=O)n(CC(=O)N4CCC(Cc5ccccc5)CC4)cnc32)cc1	-24%
c1ccc2c(-c3nnc4n3CCCCC4)c[nH]c2c1	25µM*
CC(C)N1C(=S)SC2CS(=O)(=O)C=C21 (configuration not stated)	-6%
More results:
SMILES	HPGD inh
c1ccc(C(c2nnnn2C2CCCC2)N2CCCCCC2)nc1 (configuration not stated)	-22%
Cc1nc(NC(=O)c2ccc(-c3cc4ccccc4oc3=O)cc2)ccc1Br	?
CCOC(=O)C1C(c2cc(OC)c(O)c(OC)c2)NC(=S)NC1(O)C(F)(F)F (configuration not stated)	-4%
CCOc1ccc(NC(=O)COC(=O)c2cccnc2)cc1	-16%
CCOc1ccccc1-c1nc(-c2ccc(C)nc2OC)no1	-15%
Cc1ccccc1OCc1nc(-c2ccc(NC(=O)c3ccc4c(c3)OCO4)cc2)no1	?
Cc1nnc(N/N=C/c2cc(C)n(-c3ccc(F)cc3)c2C)n1N	-12%
O=C(NCC1CCCO1)c1csc2c1CCCCC2 (configuration not stated)	25µM*
CCCCn1c(CN2CCN(c3ccc(F)cc3)CC2)nc2c1c(=O)n(C)c(=O)n2C	3%
NS(=O)(=O)c1cc2c(cc1Cl)NC(CSCc1ccccc1)=NS2(=O)=O	3%&-10%&7%
Cc1cccc(S(=O)(=O)NCC2CCCO2)c1 (configuration not stated)	2%
O=C(c1ccccc1NS(=O)(=O)c1ccc(F)cc1)N1CCCC1	-1%
CCOC(=O)c1cc(-c2ccc(C)cc2)n(CCC(=O)NCCN(C)C)c1C	-14%
CC(=O)c1cc(-c2ccccc2)n(CC(=O)N2CCC(C)CC2)c1C	2%
O=C(Nc1ccc(Oc2ccc(S(=O)(=O)N3CCOCC3)cn2)cc1)c1ccco1	-9%
Cc1cc2occ(CC(=O)NC3CCCc4ccccc43)c2cc1C (configuration not stated)	-9%
COc1cccc(C2CC(=O)N3CN(c4ccccc4F)CSC3=C2C#N)c1 (configuration not stated)	?
CC1=NN(C(C#N)c2cccc([N+](=O)[O-])c2)C(C)(C)C1 (configuration not stated)	-8%
CCOc1ccc2[nH]cc(S(=O)(=O)c3ccc(F)cc3)c(=O)c2c1	-14%
COc1cc(C(=O)Nc2ccccc2C2COC(=O)C2=N)cc(OC)c1OC (configuration not stated)	-4%
Cn1c(Cn2cnc([N+](=O)[O-])n2)nnc1SCC(=O)Nc1ccccc1	-2%
OCCSc1ncnc2c1oc1ccccc12	25µM*
O=C(c1cc2sccc2n1Cc1ccc(F)cc1)N1CCCc2ccccc21	1%
Cc1ccc(-n2c(C)cc(C(=O)COc3cccnc3[N+](=O)[O-])c2C)cc1	-18%
O=C(Oc1ccccc1[N+](=O)[O-])c1cccnc1	-1%
CCNc1nc(NCC)n2c(SCc3nc4ccccc4c(=O)[nH]3)nnc2n1	-9%
Cc1c(C(=O)Nc2ccccc2Cl)oc2ccc(S(=O)(=O)N3CCC4(CC3)OCCO4)cc12	?
Clc1cccc(-c2nnc(SCc3nc4ccccc4[nH]3)n2Cc2ccco2)c1	-30%
COC(=O)C1(C(O)C(=O)c2ccc(C)cc2C)CCCCC1 (configuration not stated)	3%
Cc1cccc(-c2noc(CN(C(C)C)S(=O)(=O)c3ccc(F)cc3)n2)c1	-20%
Cc1cc(C)cc(Oc2ncnc3c2ncn3Cc2c(Cl)cccc2Cl)c1	-2%
FC(F)(F)c1cc(C(F)(F)F)n2nc(-c3sccc3-n3cccc3)cc2n1	-19%
COCCN1C=C(C(=O)OC)C(c2ccccc2C(F)(F)F)C(C(=O)OC)=C1	?
COc1ccc(C(=O)N2CCC3(CCCN(Cc4ccccc4)C3)CC2)cc1	-8%
COc1ccc(CNC(=O)Cn2nc(Cc3cccnc3)c3ccccc3c2=O)cc1	-9%
COc1ccc(-c2cc(-c3ccc(F)cc3)nc(N3CCN(C)CC3)n2)cc1	-9%
Cc1ccc([N+](=O)[O-])cc1N=C(c1cccc(Br)c1)N1CCOCC1	0%
CC(Sc1nc(-c2ccccc2)cc(C(F)(F)F)n1)C(=O)N1CCCCC1 (configuration not stated)	7.1µM*
COCCNC(=O)CCc1ccc(S(=O)(=O)Nc2ccc(C)cc2)cc1	-22%
O=C(CSc1nnc(-c2ccc3c(c2)OCO3)n1-c1ccccc1)c1ccccc1	-16%
COc1ccc(NC(=O)N2CCCc3ccccc32)cc1	-6%
CCCCNC(=O)C1CC(=O)N(C2CCCC2)C1 (configuration not stated)	-4%
CCc1cc2c(=O)n(-c3ccc(C)cc3)cnc2s1	-25%
O=C(NC(=S)NCc1ccc(F)cc1)c1ccccc1	-14%
C/C(=N\NC(=O)c1nn(C)cc1Br)c1cccc(NC(=O)c2ccncc2)c1	-8%
CC(Oc1ccc(F)cc1)C(=O)Nc1ccc2ccccc2c1 (configuration not stated)	-17%
Cc1cccc(Nc2nc(N)nc(CN3CCC(C)CC3)n2)c1C	-5%
O=C1CC(N(CCc2ccccc2)C(=S)Nc2ccccc2)C(=O)N1c1ccccc1 (configuration not stated)	-2%
Cc1nnc(SCc2cn3ccsc3n2)n(N)c1=O	4%
O=C(NCc1ccco1)c1cc(-c2ccco2)on1	-28%
The results go on:
SMILES	HPGD inh
c1ccc(C(c2nnnn2Cc2ccco2)N2CCN(c3nc4ccccc4s3)CC2)cc1 (configuration not stated)	-15%
C/C=C1\C(=O)C[C@H]2[C@@H]3CCC4=CC(=O)CC[C@]4(C)[C@H]3CC[C@]12C	-5%
Cc1ccccc1OCCCCCNCCO	-3%
O=C(CN(Cc1ccccc1Cl)C(=O)Cn1nnc(-c2cccs2)n1)NCC1CCCO1 (configuration not stated)	-10%
Cc1cc(=O)oc2ccc(OCC(=O)N3CCC(C)CC3)cc12	?
COc1ccc(C(=O)OCC(N)=O)cc1[N+](=O)[O-]	1%
COc1cc2oc(=O)cc(-c3ccc(-c4ccc(O)cc4)cc3)c2c(OC)c1OC	?
COC(=O)c1c(CSc2ccc(C)c(C)c2)noc1C(=O)NCc1ccc(OC)cc1	7.1µM*
COc1cc(C2NC(=O)NC(O)(C(F)(F)F)C2C(=O)c2ccc(Cl)cc2)ccc1O (configuration not stated)	-15%
C/C(=C\c1ccc(C(=O)O)cc1)c1ccc2c(c1)C(C)(C)CCC2(C)C	-4%&-4%&-9%

An excerpt of these results, with values ahead of the structure.
HPGD inh | SMILES
-16% | O=C(CSc1nnc(-c2ccc3c(c2)OCO3)n1-c1ccccc1)c1ccccc1
-6% | COc1ccc(NC(=O)N2CCCc3ccccc32)cc1
-4% | CCCCNC(=O)C1CC(=O)N(C2CCCC2)C1 (configuration not stated)
-25% | CCc1cc2c(=O)n(-c3ccc(C)cc3)cnc2s1
-14% | O=C(NC(=S)NCc1ccc(F)cc1)c1ccccc1
-8% | C/C(=N\NC(=O)c1nn(C)cc1Br)c1cccc(NC(=O)c2ccncc2)c1
-17% | CC(Oc1ccc(F)cc1)C(=O)Nc1ccc2ccccc2c1 (configuration not stated)
-5% | Cc1cccc(Nc2nc(N)nc(CN3CCC(C)CC3)n2)c1C
-2% | O=C1CC(N(CCc2ccccc2)C(=S)Nc2ccccc2)C(=O)N1c1ccccc1 (configuration not stated)
4% | Cc1nnc(SCc2cn3ccsc3n2)n(N)c1=O
-28% | O=C(NCc1ccco1)c1cc(-c2ccco2)on1
-15% | c1ccc(C(c2nnnn2Cc2ccco2)N2CCN(c3nc4ccccc4s3)CC2)cc1 (configuration not stated)
-5% | C/C=C1\C(=O)C[C@H]2[C@@H]3CCC4=CC(=O)CC[C@]4(C)[C@H]3CC[C@]12C
-3% | Cc1ccccc1OCCCCCNCCO
-10% | O=C(CN(Cc1ccccc1Cl)C(=O)Cn1nnc(-c2cccs2)n1)NCC1CCCO1 (configuration not stated)
? | Cc1cc(=O)oc2ccc(OCC(=O)N3CCC(C)CC3)cc12
1% | COc1ccc(C(=O)OCC(N)=O)cc1[N+](=O)[O-]
? | COc1cc2oc(=O)cc(-c3ccc(-c4ccc(O)cc4)cc3)c2c(OC)c1OC

Remaining list, next part
SMILES	HPGD inh
COc1ccc(OC)c(NC(=O)c2cccc(S(=O)(=O)N(Cc3ccccc3)c3ccccc3OC)c2)c1	-10%
Cc1cccc(NC(=O)CC2CCC2)c1	-17%
CC(C)C(c1nnnn1C1CCCC1)N(C)C1CCCCC1 (configuration not stated)	-5%
Nc1nc(CN2CCC(Cc3ccccc3)CC2)nc(Nc2ccccc2)n1	-7%
COC(=O)c1c(NC(=O)C2CCCO2)sc2c1CCC2 (configuration not stated)	-24%
O=C(Nc1ccc(S(=O)(=O)N2CCc3ccccc3C2)cc1)c1ccccc1	-8%
COc1cc2c(cc1OC)C(C)N(C(=O)c1cc3c(s1)-c1ccccc1OC3)CC2 (configuration not stated)	?
COc1ccc(CNC(=O)CSc2n[nH]c(C)c2[N+](=O)[O-])cc1	-14%
CC(=O)Nc1nnc(SCC(=O)NCC2CCCO2)s1 (configuration not stated)	-17%
CC(C)(CSc1ccccn1)NS(=O)(=O)c1ccc(Cl)cc1	-8%
